Assay outcomes as filed in PubChem BioAssay.
SARS PLpro yeast: SARS-CoV PLP inhibition in yeast. S. cerevisiae expressing SARS-CoV PLpro, growth rescue; control for the full effect not named in the record. Potency, µM (titrated, usually from 32.9 µM), without a hit: top-dose activity, positive = growth rescue. 330,000 compounds, 0.19% hits; active means well fitted rising curve with a large enough effect; inconclusive means small, poorly fitted or top-dose-only effect; inactive means no such curve, though single readings can be large or run the other way; note: 0% is about no effect; nearly all actives have a fitted effect of over 55% in size; growth read by luminescence after 48 h
StopGo reporter: FMDV 2A StopGo reporter, luciferase signal; Potency, µM (highest dose often 57.9 µM), without a hit: at the top dose signal change, negative = less light; human cells with a luciferase reporter of 2A StopGo recoding; control for the full effect not named in the record; 410,000 compounds, 1.2% hits; active = well fitted falling curve with a large enough effect; inconclusive = small, poorly fitted or top-dose-only effect; inactive = no such curve, though single readings can be large or run the other way; tested in HEK293T cells; note: % is set by controls: 0 for no effect and ±100 for the full control effect; nearly all actives have a fitted effect of over 45% in size; luciferase light after 4 h
RE007 growth inh: less growth of the S. pombe RE007 Vpr strain; S. pombe RE007 Vpr strain, BacTiter-Glo ATP luminescence, 24 h; control for the full effect not named in the record; Potency, µM (doses to about 92.2 µM), inactives show at the highest dose activity change, negative = less growth; 360,000 compounds, 0.21% hits; active = well fitted falling curve with a large enough effect; inconclusive = small, poorly fitted or top-dose-only effect; inactive = no such curve, though single readings can be large or run the other way;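 note: % is set by controls: 0 for no effect and ±100 for the full control effect; nearly all actives have a fitted effect of over 50% in size; the assay follows cell death caused by Vpr and the record does not say whether a fall means rescue or toxicity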
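Fission yeast strain RE007, carrying one chromosomally integrated HIV-1 vpr copy, was seeded at OD 0.01 in PMG+AL medium with 23 nL pinned compound. After 24 h at 30 °C and 99% humidity, viability was read by BacTiter-Glo luminescence.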
Starred values were filed as active, the others as inactive; u = inconclusive; & = joins results of further samples; [ ] = dose if it differs, or a comment. Potency is the fitted concentration of half-maximal effect. These rows are one share of the data; rates above refer to the full screens.

#	smiles	SARS PLpro yeast	StopGo reporter	RE007 growth inh
1	C=CCNC(=O)CCC(=O)NNc1nc2ccccc2c2nc(-c3ccccc3)nn12	2%	-4%	7%
2	Cc1ccccc1OCCC(=O)N(CC(C)C)c1c(N)n(Cc2ccccc2)c(=O)[nH]c1=O	-13%	-22%	6%
3	Cc1nn(CC(=O)Nc2nccs2)c(C)c1[N+](=O)[O-]	0%	-10%	11%
4	O=C(NNC(=O)c1ccc(Br)s1)c1cccc(Cl)c1	-40%	-1%	-7%
5	COc1ccc(-c2noc(CCC(=O)N3CCN(c4cccc(C)c4)CC3)n2)cc1	20%	u	10%
6	CCN1C(=O)[C@H]2[C@@H](c3ccc(-c4cccc(Cl)c4)c(OC)c3)N3CCC[C@@]3(C(=O)OC)[C@H]2C1=O	-25%	u	2%
7	COc1ccccc1C(=O)NCCC(=O)NCC1COc2ccccc2O1 (stereo not drawn)	-5%	-16%	-2%
8	CC(=O)C[C@@H](O)CC(=O)[C@H]1OC(=O)[C@H](C)CCCCc2ccccc21	-5%	-21%	-2%
9	COc1cc(N)c(Cl)cc1C(=O)OCC(=O)N1CCCCCC1	-1%	-2%	-4%
10	C[C@@H]1CN([C@@H](C)CO)C(=O)Cc2cc(NC(=O)C3CCCCC3)ccc2O[C@H]1CN(C)S(=O)(=O)c1ccccc1	3%	-10%	-4%
11	Cc1cc(C(=O)OCC(=O)NCCc2ccc(S(N)(=O)=O)cc2)c2ccccc2n1	4%	-10%	22%
12	O=C(NCCOc1ccccc1)c1ccc2c(c1)S(=O)(=O)c1cc(Cl)ccc1C2=O	-13%	-6%	6%
13	Cc1ccc(S(=O)(=O)N(C)C)cc1NC(=O)COC(=O)c1ccc2ccccc2n1	-23%	-7%	22%
14	COc1ccc(Cl)cc1NC(=O)COC(=O)C1CC1	-14%	-14%	-9%
15	COC(=O)CSC(C)C(=O)Nc1nnc(C(C)C)s1 (stereo not drawn)	-3%	0%	-1%
16	Cc1cc(C)c(S(=O)(=O)N2CCN(C(=O)c3cc4ccccc4oc3=O)CC2)c(C)c1	1%	-26%	1%
17	COc1cccc(CN(C)C(=O)c2cc(S(=O)(=O)N3CCCC3)ccc2C)c1OC	-3%	-11%	5%
18	O=C(N[C@H]1C/C=C\C[C@@H](CC(=O)N(CCO)Cc2ccccc2)C(=O)N2CCC[C@H]2COC1=O)OCC1c2ccccc2-c2ccccc21	3%	-13%	-5%
19	COc1cc(N)c(Cl)cc1C(=O)OCC(=O)N1CCc2ccccc21	-2%	14%	-5%
20	CN(CC(=O)NCc1ccccc1)CC(=O)Nc1ccc(Cl)c(C(F)(F)F)c1	-4%	u	4%

Full records, looked up by structure. Values in the order: SARS PLpro yeast | StopGo reporter | RE007 growth inh
`Cc1cc(C)c(S(=O)(=O)N2CCN(C(=O)c3cc4ccccc4oc3=O)CC2)c(C)c1` is listed with 1% | -26% | 1%
`CCN1C(=O)[C@H]2[C@@H](c3ccc(-c4cccc(Cl)c4)c(OC)c3)N3CCC[C@@]3(C(=O)OC)[C@H]2C1=O` is listed with -25% | u | 2%
`C=CCNC(=O)CCC(=O)NNc1nc2ccccc2c2nc(-c3ccccc3)nn12` is listed with 2% | -4% | 7%

Following part:
#	smiles	SARS PLpro yeast	StopGo reporter	RE007 growth inh
21	Cc1noc(C)c1COC(=O)[C@@H](NC(=O)c1ccccc1)C(C)C	3%	-4%	10%
22	N#Cc1cccc(S(=O)(=O)NCCOc2ccccc2F)c1	-1%	10%	-13%
23	CC(C#N)(NC(=O)CN1CCN(S(=O)(=O)c2ccc(Br)cc2Cl)CC1)C1CC1 (stereo not drawn)	-7%	-5%	5%
24	COc1ccc(S(=O)(=O)Nc2ccc3c(c2)C(=O)N([C@H](C)CO)C[C@H](C)[C@@H](CN(C)S(=O)(=O)c2ccc(F)cc2)O3)cc1	2%	1%	-1%
25	CC1(C)NC(=O)N(CC(=O)N2CCN(S(=O)(=O)c3ccccc3F)CC2)C1=O	-20%	-16%	31%
26	O=C1CC(N2CCN(S(=O)(=O)c3ccc([N+](=O)[O-])cc3)CC2)C(=O)N1c1ccccc1F (stereo not drawn)	1%	-7%	-7%
27	C(=N\Nc1nc2ccccc2[nH]1)/c1ccccn1	15%	10µM*	u
28	COc1ccc(CN(C)C(=O)[C@H](Cc2ccccc2)NC(=O)c2ccco2)c(OC)c1	2%	-24%	8%
29	Cc1ccc(-n2c(O)c(C=Nc3ccc(S(=O)(=O)Nc4ncccn4)cc3)c3ccccc3c2=O)cc1C	0%	-29%	11%
30	Cc1ccc(OCCNS(=O)(=O)c2ccc(Cl)cc2)cc1	-5%	u	14%
31	O=C(O)c1ccc(Cn2cc(C(F)(F)F)ccc2=O)cc1	0%	2%	6%
32	Cc1cc(SCC(=O)N(CC(C)C)c2c(N)n(CC(C)C)c(=O)[nH]c2=O)nc2ccccc12	2%	-30%	10%
33	CCCCn1c(=S)[nH]c2cc(S(=O)(=O)N3CCOCC3)ccc21	-1%	-18%	-5%
34	Cc1ccc(SC(C)C(=O)NC(N)=O)c(C)c1 (stereo not drawn)	1%	24%	2%
35	Cc1ccc(S(=O)(=O)NCC(=O)NCC2COc3ccccc3O2)cc1C (stereo not drawn)	0%	-10%	-4%
36	O=C(Cn1cc(C(F)(F)F)cc(Cl)c1=O)NC1CCS(=O)(=O)C1 (stereo not drawn)	7%	-15%	-13%
37	CN(CC(=O)Nc1ccc(Cl)c(C(F)(F)F)c1)CC(=O)NC1CCCCC1	0%	u	-5%
38	O=C(Nc1nccs1)c1nc[nH]c1C(=O)N1CCN(c2ccccc2)CC1	-2%	0%	-10%
39	O=C(NCCC(=O)N1CCN(S(=O)(=O)c2ccc(F)cc2)CC1)Nc1ccccc1	-8%	-11%	19%
40	CCSc1nnc2ccc(-c3ccco3)nn12	-2%	-4%	5%
41	Cc1cccc(C(=O)OCC(=O)Nc2c(C)n(C)n(-c3ccccc3)c2=O)c1O	1%	-23%	-5%
42	O=S(=O)(Nc1cccc(S(=O)(=O)N2CCCC2)c1)c1ccc(Cl)s1	-3%	39%[activator]	0%
43	CCN1C(=O)[C@H]2[C@@H](c3ccc(-c4ccc(Cl)c(Cl)c4)c(OC)c3)N3CCCC[C@@]3(C(=O)OC)[C@H]2C1=O	-2%	-29%	14%
44	Cc1ccc(Nc2ccc(N3CCN(c4ccc([N+](=O)[O-])cc4)CC3)nn2)cc1	-1%	-11%	-3%
45	CC(C)c1cc(NC(=O)CCl)on1	16%	u	9%
46	Cc1cc(=O)c(C(=O)Nc2cccc(C(=O)NC3CC3)c2)nn1-c1ccccc1Cl	2%	u	-4%
47	CC[C@@]12C(=O)N(c3cccc(Br)c3)C(=O)N1[C@H](c1ccc(OC)cc1)[C@@H]1C(=O)N(C(C)(C)C)C(=O)[C@@H]12	3%	-21%	-3%
48	C=C[C@H](CC(C)C)N(Cc1ccccc1)S(=O)(=O)N(Cc1ccccc1)[C@@H](C=C)CC(C)C	4%	-2%	1%
49	CCOc1ccc(N(CC(=O)NN=C2CCCC2)S(C)(=O)=O)cc1	7%	6%	1%
50	COC(=O)C1=C(c2ccc(F)cc2OCc2ccccc2)C[C@@H]2CC[C@H]1N2C(=O)NCc1ccc(Cl)cc1	-10%	-21%	12%
51	CCN(C(=O)c1c(C)noc1C)c1c(N)n(Cc2ccccc2)c(=O)[nH]c1=O	-9%	-13%	-2%
52	Cc1cc(C(=O)NNC(=O)c2ccccc2O)c(C)o1	-5%	36%[activator]	4%
53	COC(=O)C1=C(c2ccc(OC)c(OC)c2)C[C@@H]2CC[C@H]1N2C(=O)N1CCC(O)CC1	-9%	-16%	4%
54	Cc1ccc(O)c(NC(=O)/C=C/C(=O)O)c1	0%	-5%	5%
55	C[C@H]1CN([C@@H](C)CO)C(=O)c2cccc(NC(=O)c3cnccn3)c2O[C@@H]1CN(C)S(=O)(=O)c1ccc(F)cc1	-9%	0%	-3%
56	CCCC(C)NC(=O)c1cc(S(=O)(=O)N2CCCCCC2)ccc1OC (stereo not drawn)	-6%	-5%	1%
57	CC(=O)c1ccccc1NC(=O)COC(=O)c1c(C)nn(-c2ccccc2)c1C	-2%	15%	-9%
58	CC1(C)OC(C)(C)/C(=C\c2ccc(OCC(N)=O)cc2)C1=O	-10%	-19%	-4%
59	CCOc1ccccc1NC(=O)COC(=O)Cc1ccsc1	-6%	-11%	-18%
60	Cc1cc(C)c2sc(N(CCCN(C)C)C(=O)c3ccc(Br)s3)nc2c1	-13%	u	5%
61	CCCCCn1c(=O)[nH]c2cc(C(=O)NCCCN(C)Cc3ccccc3)ccc2c1=O	-4%	-16%	2%
62	CCOc1ccc(OCCC(=O)Nc2ccc3c(c2)OCO3)cc1	3%	36%[activator]	-12%
63	Cc1c(C(=O)Nc2nc(-c3ccccn3)cs2)oc2ccccc12	0%	1%	-15%
64	COC(=O)c1c(C)[nH]c(C)c1-c1ccc([N+](=O)[O-])cc1	-8%	-1%	-11%
65	Cn1ccc(NS(=O)(=O)c2cc(Br)ccc2Br)n1	-6%	27%	1%
66	CC1(C)O[C@@H]2[C@H](O1)[C@@H](COS(=O)(=O)O)O[C@H]2n1cnc2c(=O)[nH]cnc21	3%	-6%	9%
67	COc1ccc(CN2C(=O)c3ccccc3C2=O)cc1C(=O)N(C)CC(=O)Nc1c(C)cccc1C	6%	-26%	2%
68	CCc1cccc2c(C(=O)CN3C(=O)N(C)C4(CCCCC4)C3=O)c[nH]c12	4%	-12%	12%
69	C[C@H](CO)N1C[C@H](C)[C@@H](CN(C)S(=O)(=O)c2cn(C)cn2)Oc2c(NC(=O)Nc3ccc(C(F)(F)F)cc3)cccc2C1=O	-5%	9%	1%
70	COc1ccc(CN2C(=O)C(C)Nc3ncnc(N4CCN(c5ccccc5)CC4)c32)cc1 (stereo not drawn)	2%	-18%&-21%	1%&-13%
71	COCCN(C(=O)c1cc(-c2ccco2)nc2ccccc12)c1c(N)n(Cc2ccccc2)c(=O)[nH]c1=O	1%	-7%	5%
72	Cc1noc(C)c1NC(=O)N(C)C[C@H]1Oc2ccc(NC(=O)Nc3ccc4c(c3)OCO4)cc2C(=O)N([C@H](C)CO)C[C@@H]1C	-13%	-8%	-1%
73	COc1cc(C(=O)OCC(=O)c2ccccc2)cc2c1OCCO2	4%	19%	13%
74	COC(=O)[C@@H](c1ccccc1)C1CCCCN1 (stereo partly drawn)	2%	-20%	13%
75	Cc1cccc(NC(=O)CSCC(=O)N2CCN(c3cccc(C(F)(F)F)c3)CC2)c1	0%	-28%	4%

Filtered by structure, the entries above with fluorine.
#	smiles	SARS PLpro yeast	StopGo reporter	RE007 growth inh
20	CN(CC(=O)NCc1ccccc1)CC(=O)Nc1ccc(Cl)c(C(F)(F)F)c1	-4%	u	4%
22	N#Cc1cccc(S(=O)(=O)NCCOc2ccccc2F)c1	-1%	10%	-13%
24	COc1ccc(S(=O)(=O)Nc2ccc3c(c2)C(=O)N([C@H](C)CO)C[C@H](C)[C@@H](CN(C)S(=O)(=O)c2ccc(F)cc2)O3)cc1	2%	1%	-1%
25	CC1(C)NC(=O)N(CC(=O)N2CCN(S(=O)(=O)c3ccccc3F)CC2)C1=O	-20%	-16%	31%
26	O=C1CC(N2CCN(S(=O)(=O)c3ccc([N+](=O)[O-])cc3)CC2)C(=O)N1c1ccccc1F (stereo not drawn)	1%	-7%	-7%
31	O=C(O)c1ccc(Cn2cc(C(F)(F)F)ccc2=O)cc1	0%	2%	6%
36	O=C(Cn1cc(C(F)(F)F)cc(Cl)c1=O)NC1CCS(=O)(=O)C1 (stereo not drawn)	7%	-15%	-13%
37	CN(CC(=O)Nc1ccc(Cl)c(C(F)(F)F)c1)CC(=O)NC1CCCCC1	0%	u	-5%
39	O=C(NCCC(=O)N1CCN(S(=O)(=O)c2ccc(F)cc2)CC1)Nc1ccccc1	-8%	-11%	19%
50	COC(=O)C1=C(c2ccc(F)cc2OCc2ccccc2)C[C@@H]2CC[C@H]1N2C(=O)NCc1ccc(Cl)cc1	-10%	-21%	12%
55	C[C@H]1CN([C@@H](C)CO)C(=O)c2cccc(NC(=O)c3cnccn3)c2O[C@@H]1CN(C)S(=O)(=O)c1ccc(F)cc1	-9%	0%	-3%
69	C[C@H](CO)N1C[C@H](C)[C@@H](CN(C)S(=O)(=O)c2cn(C)cn2)Oc2c(NC(=O)Nc3ccc(C(F)(F)F)cc3)cccc2C1=O	-5%	9%	1%
75	Cc1cccc(NC(=O)CSCC(=O)N2CCN(c3cccc(C(F)(F)F)c3)CC2)c1	0%	-28%	4%
